ClpP mod: qHTS Assay for Activators of ClpP. 340,000 compounds, 1.9% hits. ATP-dependent Clp protease proteolytic subunit (Bacillus subtilis (strain 168)), P80244. Potency, µM (top dose mostly 57.5 µM), for inactives: top-dose activity change, negative = active. purified B. subtilis ClpP, FRET peptide cleavage, 20 min; active = well fitted falling curve with a large enough effect; inconclusive = small, poorly fitted or top-dose-only effect; inactive = no such curve, though single readings can be large or run the other way; also: potency is read from the fitted curve at half-maximal effect; the source files actives as falling curves though it sought activators and does not explain the sign; nearly all actives have a fitted effect of over 65% in size; many hits overshoot -100%
Target sequence (P80244 whole entry, looked up): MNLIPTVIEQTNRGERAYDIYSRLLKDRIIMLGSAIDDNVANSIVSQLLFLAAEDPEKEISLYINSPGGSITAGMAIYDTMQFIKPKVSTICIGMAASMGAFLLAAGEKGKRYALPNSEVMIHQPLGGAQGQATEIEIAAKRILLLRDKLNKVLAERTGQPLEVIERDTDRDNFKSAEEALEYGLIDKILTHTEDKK
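ClpP 10 microg/mL final, pH 8 Tris/KCl buffer with BSA, glycerol, Tween-20; compound pinned in; FRET-FV substrate; RT 20 min; Ex320/Em430; ΔFRET vs ADEP 5.8 microM, DMSO, no enzyme.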
Sfp inh: qHTS Assay for Inhibitors of Bacillus subtilis Sfp phosphopantetheinyl transferase (PPTase). Potency, µM, inactives show max response, negative = inhibition, usual class: inhibitors. AID 1490, 2009. Biochemical Sfp PPTase activity, qHTS. 310,000 compounds, 3.5% hits. 4'-phosphopantetheinyl transferase ffp (Bacillus subtilis), Q9F4F7; active = well fitted inhibition curve with a large enough effect; inconclusive = small, poorly fitted or top-dose-only effect, or another doubt; inactive = no such curve, though single readings can be large or run the other way;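 also: the enzyme is Sfp with the accession as filed and its product quenches rhodamine fluorescence; potency is read from the fitted curve at half-maximal effect; 0% = enzyme reaction without inhibitor and -100% = no enzyme wells; top concentration of the series not given in the record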
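Step 1, compound plus 15 nM Sfp-PPTase, 15 min, room temperature. Step 2, add rhodamine-CoA (5 uM) and BHQ-2-YbbR (12.5 uM). Step 3, read 525/598 nm fluorescence at 0 and 30 min.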
gsp antagonist: qHTS for Antagonists of gsp, the Etiologic Mutation Responsible for Fibrous Dysplasia/McCune-Albright Syndrome: qHTS. gsp-mutant cells, cAMP HTRF, 30 min; control for the full effect not named in the record. Potency, µM (doses to about 76.9 µM), for inactives: at the highest dose activity change, negative = inhibition, actives largely listed as inhibitors. 340,000 compounds, 0.4% hits. AID 624288, 2012; active = falling curve of any shape with a large fitted effect; inconclusive = falling curve, mostly with a smaller effect; inactive = flat or rising curve; cell line not stated here;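 also: intracellular cAMP measured with PDE inhibitor Ro 20-1724 present during compound exposure; potency is read from the fitted curve at half-maximal effect; % is scaled to controls: 0 for no effect and ±100 for the full control effect; nearly all actives have a fitted effect of over 65% in size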
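HTRF cAMP read-out (cAMP-d2 plus anti-cAMP antibody-K in lysis buffer, 30 min RT). Before lysis, cells are exposed to compounds with […] for 30 min at 37C in DPBS containing Ca/Mg, BSA and Tween 20.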
TRPV1 PAM: HTS Assay for Compounds that Act as Potentiators of the Vanilloid Receptor 1; Transient receptor potential cation channel subfamily V member 1 (Homo sapiens), Q8NER1; TRPV1-expressing cells, Fluo-8 calcium influx, capsaicin EC20 potentiation; host cell line not named in the record; control for the full effect not named in the record; potentiation, % at 8.33 µM; 320,000 compounds, 0.02% hits; AID 540277, 2011; active means potentiation above 80%; inconclusive means 30% to 80%; inactive means below 30%; also: 0% is about no effect
Target sequence (Q8NER1 whole entry, looked up): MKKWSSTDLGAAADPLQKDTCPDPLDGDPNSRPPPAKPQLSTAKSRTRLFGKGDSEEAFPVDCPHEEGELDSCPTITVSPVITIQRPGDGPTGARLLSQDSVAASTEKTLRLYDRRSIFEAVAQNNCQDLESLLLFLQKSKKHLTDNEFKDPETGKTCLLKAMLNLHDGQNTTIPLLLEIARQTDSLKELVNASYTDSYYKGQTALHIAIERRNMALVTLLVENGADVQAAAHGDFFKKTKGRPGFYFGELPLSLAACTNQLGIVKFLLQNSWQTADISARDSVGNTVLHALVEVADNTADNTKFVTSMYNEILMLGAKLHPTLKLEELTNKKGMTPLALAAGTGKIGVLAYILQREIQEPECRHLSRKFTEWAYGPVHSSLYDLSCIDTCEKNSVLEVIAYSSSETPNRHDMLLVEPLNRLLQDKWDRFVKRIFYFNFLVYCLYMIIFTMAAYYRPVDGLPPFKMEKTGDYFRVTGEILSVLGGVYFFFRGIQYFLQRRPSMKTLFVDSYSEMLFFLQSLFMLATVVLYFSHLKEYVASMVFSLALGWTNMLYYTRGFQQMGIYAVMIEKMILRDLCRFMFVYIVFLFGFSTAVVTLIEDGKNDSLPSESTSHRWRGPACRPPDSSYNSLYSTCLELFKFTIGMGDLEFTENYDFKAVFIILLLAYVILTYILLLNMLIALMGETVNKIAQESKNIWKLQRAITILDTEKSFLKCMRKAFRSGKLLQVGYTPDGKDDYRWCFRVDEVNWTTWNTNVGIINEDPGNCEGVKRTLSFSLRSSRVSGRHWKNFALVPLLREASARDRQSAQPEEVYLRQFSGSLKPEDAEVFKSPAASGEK
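TRPV1-expressing cells were cultured overnight at 35.5C and loaded with Fluo-8 calcium dye for 40 to 90 min at room temperature. After a 10 s baseline, compound was added and calcium influx was read kinetically for 3 min (ex 480/em 520 nm).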
CtBP-E1A blk: qHTS Assay for Inhibitors of the CtBP/E1A Interaction | CtBP / adenovirus E1A interaction (AlphaScreen) | AlphaScreen GST-E1A/His-CtBP binding, 1536-well; active compounds read low; control for the full effect not named in the record | activity change, % (concentration not given with the values) | 340,000 compounds, 0.49% hits | AID 651724, 2012; in the data active means activity change below about -65%; inconclusive means about -30% to -65%; inactive means above about -30%; also: % is scaled to controls: 0 for no effect and ±100 for the full control effect
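GST-E1A and His-tagged CtBP (125 nM each as 5X stock) were preincubated with pin-transferred compound for 2 h at 37 °C in the dark, then glutathione donor and nickel acceptor beads were added for 1 h before AlphaScreen reading.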
Menin-MLL FL inh: qHTS Assay for Inhibitors Targeting the Menin-MLL Interaction in MLL Related Leukemias: Competition With Fluorescein Labeled MLL-derived Peptide; Fluorescence polarization, fluorescein-MLL peptide displacement from menin; FP activity change, % at 61.4 µM; 290,000 tested, under 10 active; AID 1766, 2009; inconclusive = falling polarisation curve, or a change in total fluorescence; inactive = total fluorescence flat and polarisation flat or rising; no compound was filed as active; the % refers to the polarisation; negative = inhibition;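 also: % of control where 0% means no effect; inhibitors lower the polarisation; unlabelled MLL peptide was the positive control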
gsp ag: qHTS for Agonist of gsp, the Etiologic Mutation Responsible for Fibrous Dysplasia/McCune-Albright Syndrome: qHTS. gsp mutant cells, cAMP HTRF, 30 min; control for the full effect not named in the record. AID 624287, 2012. 340,000 compounds, 0.13% hits. Potency, µM (top dose mostly 76.9 µM), inactives show at the highest dose activation (cAMP increase), most hits filed as activators; active = well fitted activation curve with a large enough effect; inconclusive = small, poorly fitted or top-dose-only effect, or another doubt; inactive = no such curve, though single readings can be large or run the other way; cell line not stated here;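 also: phosphodiesterase inhibitor Ro 20-1724 added with compounds to block cAMP breakdown; potency is read from the fitted curve at half-maximal effect; nearly all actives have a fitted effect of over 60% in size; about a fifth of the inactives were tested at one dose only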
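Cells in DMEM/10% FBS with G418 were pretreated with compounds in DMSO plus […] (300 uM stock) for 30 min at 37C. cAMP was measured by HTRF (cAMP-d2 plus anti-cAMP antibody-K) after 30 min at room temperature.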
Starred values were filed as active, the others as inactive; ? = inconclusive; / = not tested or not shown; [ ] = another dose, or the depositor's remark.

SMILES	ClpP mod	Sfp inh	gsp antagonist	TRPV1 PAM	CtBP-E1A blk	Menin-MLL FL inh	gsp ag
O=C(Nc1ccn(CCCN2CCC(N3CCOCC3)CC2)c(=O)n1)OCc1ccccc1	-3.0%	/	/	/	-9	/	-48%[inhibitor]
O=C(OCc1c(F)cccc1Cl)c1cccnc1Cl	/	10%	-7%	-9	26	-0.8	17%[15.4 µM]
O=C1c2cccnc2C(=O)N1CO	-2.5%	9%	6%	11	-6	1.3	-18%
CCc1nnc2n1N=C(c1ccc(Br)cc1)CS2	-0.3%	0%	-6%	-13	-8	-2.2	38%
O=C1C(=O)N(CC2COc3ccccc3O2)c2ccccc21 (stereo not given)	0.9%	4%	11%	-3	-4	-12	?
CCN(CC)c1ccc(C2C(C(=O)OCCOC(C)C)=C(C)NC3=C2C(=O)CCC3)cc1 (stereo not given)	-6.8%	-1%	6%	-8	-2	0.8	7%
CC(C)n1c(S(=O)(=O)O)nc2ccccc21	/	-2%	-3%	2	11	-1.2	6%[15.4 µM]
CS(=O)(=O)NCc1nnc(SCC(=O)NC2CCCCC2)n1-c1ccc(F)cc1	-29%	20%	6%	2	-9	2.9	5%
Cc1cccc(OC2CCN(Cc3c(C(=O)N4CCCC4)nc4ccccn34)CC2)c1	-6.5%	7%	-3%	19	-15	-4.1	8%
O=C(Nc1nc2c(F)cc(F)cc2s1)C1COc2ccccc2O1 (stereo not given)	-2.2%	-2%	-17%	3	-6	1.0	-27%
Nc1nnc(SCC(=O)N2CCc3ccccc3C2)s1	/	15%	10%	14	1	-9.1	10%[15.4 µM]
O=C(Nc1cccc(-c2nn[nH]n2)c1)c1ccc(Br)s1	-5.4%	7%	-2%	0	-69*	/	1%
CCCCCC(=O)Nc1ccccc1N1CCN(c2ccccc2)CC1	0.6%	-15%	-8%	-1	43	0.2	-36%[inhibitor]
CCCC(C(=O)NCc1ccco1)N(C(=O)CNS(=O)(=O)c1ccccc1)C1CCCC1 (stereo not given)	0.8%	3%	-4%[15.4 µM]	-9	0	2.0	-18%
CN(C)C(=O)COc1ccc(S(=O)(=O)c2ccc(OCC(=O)N(C)C)cc2)cc1	/	-1%	7%	15	1	2.2	-1%
C[C@]12C=CC(=O)C=C1CC[C@@H]1[C@@H]2[C@@H](O)C[C@@]2(C)[C@H]1CC[C@]2(O)C(=O)COC(=O)CCC(=O)NCCc1ccc(O)cc1	0.9%	17%	-3%	-4	-4	7.0	?
O=C(COC(=O)c1ncc(Cl)c(Cl)c1Cl)Nc1ccc(Cl)cn1	-4.2%	/	1%	-1	10	/	9%
O=C(CSc1nnc(NC(=O)c2ccc(F)cc2)s1)NC1CC1	/	12%	7%	-5	2	-7.8	-6%
N#CCCn1cc(/C=N/O)c(-c2cccc([N+](=O)[O-])c2)n1	/	10%	9%	-4	-3	-1.4	6%[15.4 µM]
Cc1ccc(NC(=O)c2ccco2)c(NC(=O)CN2C(=O)c3ccccc3C2=O)c1	?	-3%	1%	-6	-3	12	?
Cn1c(=O)c2nc(SCCO)n(C)c2n(C)c1=O	/	/	14%	/	4	/	?
CCC1C2CN(C(C)=O)CC=C2C(C#N)=C(N)C1(C#N)C#N (stereo not given)	-21%	10%	2%	2	0	1.4	27%
CS(=O)(=O)c1ccc(-c2csc(-c3cccnc3)n2)cc1	-21%	6%	1%	-9	/	7.4	?
COc1ccc(CC(=O)N2CCN(S(=O)(=O)c3cc(Cl)ccc3Cl)CC2)cc1	1.1%	/	-6%	-14	0	/	-43%[inhibitor]
Cc1cc(S(N)(=O)=O)c(N)c(S(N)(=O)=O)c1	4.6%	-3%	9%	-6	/	-2.4	-10%
CN(C)S(=O)(=O)c1ccc(NC(=O)CN2CCCc3ccccc32)cc1	/	2%	-11%	-2	-11	2.3	0%[15.4 µM]
CCOC(=O)CSc1nc2nc(C)cc(C)n2n1	-6.8%	17%	-1%	21	-6	0.4	28%
CCOC(=O)C1(Cc2ccc(OC)cc2)CCN(C(=O)CC2CCC(=O)N2)CC1 (stereo not given)	-4.5%	-25%	3%	-10	/	3.4	-4%
CC(C)(C)NC(=O)c1ccc(C(=O)NC(C)(C)C)cc1	/	3%	10%	15	2	-2.3	?
C/C(=N\NC(=O)C(=O)Nc1cccc(C(F)(F)F)c1)c1ccc(Cl)s1	6.9%	2%	0%	0	10	5.3	-27%
O=c1[nH]n(-c2ccc([N+](=O)[O-])cc2)c(=O)c2ccccc12	/	-9%	-9%	0	0	-0.4	-10%[15.4 µM]
CCN(c1ccccc1)c1nc2nonc2nc1NCCO	/	14%	-1%	-7	3	0.9	-1%
C/C(=N\NC(=O)c1nnn(-c2nonc2N)c1CN(C)c1ccccc1)c1cccs1	1.4%	-1%	-5%	-4	8	-4.0	21%
CCn1cc(-c2n[nH]c(=S)n2-c2ccc(C)cc2Br)c(=O)c2ccc(C)nc21	0.3%	6%	6%	18	-3	-0.4	?
Cc1nc(N2CCN(c3ccccn3)CC2)c2c(C)c(C(=O)Nc3ccc(Cl)cc3)sc2n1	-15%	-7%	-26%	6	/	/	-14%
Cc1cc2oc(=O)cc(CN3CCOCC3)c2cc1O	/	5%	3%	6	9	8.2	0%
COc1ccc(Cl)cc1NC(=O)CN(C)C(=O)c1cccc(S(=O)(=O)N2CCN(C)CC2)c1	-1.7%	/	7%	/	-1	/	-17%
CCCCSCCCNC(=O)c1ccc(CS(=O)(=O)c2ccc(OC)cc2)o1	91%	0%	-27%	8	0	0.3	-2%[15.4 µM]
CC(=O)Nc1ccc(S(=O)(=O)N2CCC(C(=O)NC3CCCC3)CC2)cc1	0.5%	3%	10%	-1	6	2.3	22%
CNC(=O)c1ccc(NC(=O)CN2c3cccc4cccc(c34)S2(=O)=O)cc1	/	/	-4%	7	-14	/	-4%[15.4 µM]
NCCCCC(NC(=O)C1CCCN1C(=O)C1CSSCC(N)C(=O)NC(Cc2ccc(O)cc2)C(=O)NC(Cc2ccccc2)C(=O)NC(CCC(N)=O)C(=O)NC(CC(N)=O)C(=O)N1)C(=O)NCC(N)=O (stereo not given)	/	11%	/	5	/	2.9	/
COC(=O)c1cccc(NC(=O)c2ccc[n+]([O-])c2)c1	/	18%	?	15	5	4.2	-17%
Cc1csc(=O)n1CC(=O)OC(C)C(=O)Nc1cccc(Cl)c1 (stereo not given)	/	/	2%	0	3	/	-3%[15.4 µM]
CSCC[C@H](NC(=O)OC(C)(C)C)c1nnc(SCC(N)=O)o1	-0.2%	3%	11%	-6	3	3.5	-37%[inhibitor]
O=C(CSc1nnnn1C1CCCC1)N1CCCc2ccccc21	-2.3%	10%	0%	-26	5	1.9	1%
FC(F)(F)c1cccc(NC(=S)NNC(=S)Nc2ccc(Cl)cc2)c1	/	25µM*	/	10	/	0.9	/
CCCCOc1ccc(-c2nnn(CC(=O)NCc3ccco3)n2)cc1	1.4%	4%	5%	6	-5	-1.1	3%
CCCN1C2CCCC1CC(NC(=O)Nc1cccc(C(C)=O)c1)C2 (stereo not given)	-8.5%	11%	18%	-23	-4	1.1	-4%
CN(C)CCN(Cc1cc2cc3c(cc2[nH]c1=O)OCO3)C(=S)NCC1CCCO1 (stereo not given)	/	-3%	11%	12	/	4.5	4%[15.4 µM]
CCOc1cc(C(N)=O)cc(Br)c1OC	0.5%	-17%	2%	?	-2	-2.6	0%
Cc1cc(NNC(=O)c2ccccc2)nc(NNC(=O)c2ccccc2)n1	/	19%	11%	-11	8	-6.5	-3%
Cc1ccc(S(=O)(=O)N2CCN(c3ccc([N+](=O)[O-])c4cccnc34)CC2)cc1	-12%	2%	7%	-9	-7	0.4	-23%
COCCNC(=O)Cc1ccc(Br)cc1	-1.3%	-4%	4%	2	-12	1.3	-7%
COCCn1c(=NC(=O)c2ccc(S(=O)(=O)N3CCc4ccccc4C3)cc2)sc2cc(S(N)(=O)=O)ccc21	14µM*	-1%	2%	12	0	2.9	-3%
CCN(CC)c1ccc(C2Nc3cccc4cccc(c34)N2)c(O)c1	?	-14%	-4%	-9	-4	0.6	19%
C[C@H](NC(=O)c1nc[nH]c1C(=O)NCC(=O)OC(C)(C)C)C(=O)OC(C)(C)C	-2.6%	3%	12%	-54	/	-1.6	9%
CCOC(=O)/C=C1\SCC(=O)N1CCOc1cccc(Br)c1	-2.3%	10%	-33%	/	3	3.6	2%

Some of these compounds in order of the gsp antagonist value, rising.
Compound | Sfp inh | gsp antagonist | CtBP-E1A blk | Menin-MLL FL inh | gsp ag
CCOC(=O)/C=C1\SCC(=O)N1CCOc1cccc(Br)c1 | 10% | -33% | 3 | 3.6 | 2%
COCCNC(=O)Cc1ccc(Br)cc1 | -4% | 4% | -12 | 1.3 | -7%
CCCCOc1ccc(-c2nnn(CC(=O)NCc3ccco3)n2)cc1 | 4% | 5% | -5 | -1.1 | 3%
Cc1ccc(S(=O)(=O)N2CCN(c3ccc([N+](=O)[O-])c4cccnc34)CC2)cc1 | 2% | 7% | -7 | 0.4 | -23%
CN(C)CCN(Cc1cc2cc3c(cc2[nH]c1=O)OCO3)C(=S)NCC1CCCO1 (stereo not given) | -3% | 11% | / | 4.5 | 4%[15.4 µM]

Shown with two lines to a compound: part of the list above.
The line under a structure holds: ClpP mod	Sfp inh	gsp antagonist	TRPV1 PAM	CtBP-E1A blk	Menin-MLL FL inh	gsp ag
Cc1ccc(S(=O)(=O)N2CCN(c3ccc([N+](=O)[O-])c4cccnc34)CC2)cc1
→ -12%	2%	7%	-9	-7	0.4	-23%
COCCNC(=O)Cc1ccc(Br)cc1
→ -1.3%	-4%	4%	2	-12	1.3	-7%
